Assay outcomes deposited in PubChem BioAssay by National Center for Advancing Translational Sciences (NCATS).
HPGD block = HPGD (human) dehydrogenase inhibition | P15428 | purified HPGD, NADH fluorescence kinetic, PGE2 substrate | Potency, µM, inactives show at the top dose activity change, negative = inhibition, most hits filed as inhibitors | 150,000 compounds, 4.3% hits; active = well fitted inhibition curve with a large enough effect (not every such curve was filed as active); inconclusive = small, poorly fitted or top-dose-only effect, or another doubt; inactive = no such curve, though single readings can be large or run the other way;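 also: top concentration of the series not given in the record; plate controls included wells without enzyme; inactives centre near -10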
Target sequence (P15428 whole entry, looked up): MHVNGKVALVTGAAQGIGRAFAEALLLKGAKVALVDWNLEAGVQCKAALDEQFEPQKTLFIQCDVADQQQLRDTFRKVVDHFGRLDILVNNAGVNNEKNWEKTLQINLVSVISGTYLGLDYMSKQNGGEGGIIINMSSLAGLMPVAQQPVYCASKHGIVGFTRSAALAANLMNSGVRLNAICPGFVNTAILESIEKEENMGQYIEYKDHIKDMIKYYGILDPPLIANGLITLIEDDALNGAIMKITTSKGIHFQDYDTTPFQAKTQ
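20 nM HPGD preincubated 15 min at room temperature with compound in 50 mM Tris-HCl pH 8, 0.01% Tween 20. Started with 1 mM NAD+ and 30 uM prostaglandin E2; NADH fluorescence (360/450 nm) read 5 times over 30-s intervals, last minus first.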
Active calls of the source: *; u = inconclusive. % is scaled to controls: 0 for no effect and ±100 for the full control effect; potency is read from the fitted curve at half-maximal effect.

SMILES	HPGD block
COc1ccccc1OCC(=O)N/N=C1/SCC(=O)N1Cc1ccccc1	-17%
CN(c1ccccc1C(=O)N1CCOCC1)S(C)(=O)=O	-7%
Cc1ccc(S(=O)(=O)NCCC(=O)O)cc1	-2%
CCOc1ccc(C(C)=O)cc1N1C(=O)C2C3C=CC(C3)C2C1=O (stereo unspecified)	0%
CC(C)CC(=O)Nc1ccc(C(=O)COc2ccc(-c3nnco3)cc2)cc1	u
c1ccc(CCNc2c3c(nc4ncnn24)CCC3)cc1	18µM*
Cc1ccc(CN(CC(=O)NC2CCCC2)C(=O)CSc2nnc(COc3ccccc3)o2)cc1	28µM*
CC(=O)n1c(COS(C)(=O)=O)nc2ccccc21	-7%
Cc1nc(NC(=O)c2ccccc2)sc1-c1csc(NCCc2ccccc2)n1	-21%
CCOc1ccc(NC(=O)C2CC(=O)NC(N3CCc4ccccc43)=N2)cc1 (stereo unspecified)	-20%
COc1cccc(C(=O)CSc2nnc(CNS(=O)(=O)c3ccc(C)cc3)n2C)c1	-4%
O=c1c2sccc2nc(SCc2cc(=O)n3ccccc3n2)n1-c1ccc(Br)cc1	u
CCOc1cc(CN2CCN(C(=O)CC(C)C)CC2)ccc1OC	-9%
Cc1cc(C)n(C(=O)c2ccc(NC(=O)CC(C)C)cc2)n1	-17%
COc1ccccc1CCNC(=O)/C(=C/c1cccnc1)NC(=O)c1ccccc1	-5%
O=S(=O)(Nc1ccc2c(c1)OCO2)c1ccc(Br)s1	-15%
Cc1cccn2c(=O)c3cc(C(=O)NCC4CCCO4)c(=N)n(Cc4cccnc4)c3nc12 (stereo unspecified)	u
COc1cc(NC(=O)CSc2nnc(C)s2)cc(OC)c1OC	-6%
CCN1C(=O)CC(N2CCN(CC(=O)NC(C)C)CC2)C1=O (stereo unspecified)	-4%
Cc1cc(NC(=O)CSc2ccc3nnc(-c4ccc(Cl)cc4)n3n2)no1	-25%
CC(C)[C@H](NC(=O)Nc1cccc(Br)c1)C(=O)O	3%
COc1ccc(N2CCN(C(=O)CCCn3c(=S)[nH]c4cc5c(cc4c3=O)OCO5)CC2)cc1	-14%
COc1ccc(C(=O)NN2CCCCC2)cc1OC	-7%
Cc1nn(-c2cccc(Cl)c2)c2nc(-c3ccco3)cc(C(=O)O)c12	u
COc1cc(-c2nc(S(=O)(=O)c3ccc(Cl)cc3)c(N(C)C)o2)cc(OC)c1OC	-19%
Cc1ccc(S(=O)(=O)NC(=O)c2cc(C)n(CCCN3CCOCC3)c2C)cc1	-3%
Cc1ccc(C#N)c(SCc2ccccc2[N+](=O)[O-])n1	-12%
Cc1ccc(OC(=O)CCC(=O)NC(C)c2ccccc2)cc1 (stereo unspecified)	-9%
CCOC(=O)CN(C(=O)CSc1nnc(CNc2ccc(F)cc2)o1)c1ccccc1	-18%
COc1ccc(CCN2C(=O)CC(C(N)=O)SC2=Nc2ccccc2)cc1OC (stereo unspecified)	-9%
Cc1cccc(NC(=O)N[C@@H](C)C(=O)O)c1	-11%
Cc1cc2cc(CNC(=O)c3cccc([N+](=O)[O-])c3)ccc2[nH]1	u
Cc1ccc(-n2nnnc2SCn2nnc3ccccc3c2=O)cc1	-24%
COCCn1nnnc1C(c1cccs1)N1CCN(c2ccccc2)CC1 (stereo unspecified)	-4%
CCN(CC)c1ccc(N2C(=O)/C(=C\c3cccnc3)SC2=S)cc1	1%
Cc1ccccc1C(=O)c1c[nH]c(C(=O)NCCCn2ccnc2)c1	-5%
CCCCNC(=O)NNC(=O)COc1cccc(C)c1C	-1%
CC[C@@H](C(=O)n1nc(C)cc1C)[C@H](NS(=O)(=O)c1ccc(C)cc1)c1ccccc1	-3%
O=C(O)C1CC(=O)N(c2ccc(Br)cc2)C1 (stereo unspecified)	-13%
COCCCn1c(SCc2nnc(-c3ccccc3)o2)nc2sc3c(c2c1=O)CCC3	14µM*
Cc1cccc(C2=NN(c3ccccc3)[C@H](CO)[C@H]2c2ccc(Cl)cc2)c1	u
CC(=O)OC(C(=O)NCS(=O)(=O)c1ccc(C)cc1)c1cccnc1 (stereo unspecified)	-7%
Cc1ccn2cc(CCNC(=O)CC(C)(C)C)nc2c1	u
CCCCOc1ccc(C(=O)NCc2ccncc2)cc1	-6%
CCCc1nc2oc3c(OC)ncnc3c2c2c1COC(C)(C)C2	-15%
COc1ccc(-c2csc(N3C(=O)C4C5c6ccccc6C(c6ccccc65)[C@@H]4C3=O)n2)cc1 (stereo partly specified)	-3%
Cc1ccc2cc(CCNC(=O)c3ccc(Br)o3)c(=O)[nH]c2c1	28µM*
C=C[C@]1(C)Cc2occ(C)c2C[C@H]1C(=C)C(=O)O	-5%
COc1cccc(-n2ccnc2SCC(=O)Nc2cc(OC)ccc2OC)c1	-14%
O=C(Nc1cccc(C(F)(F)F)c1)c1ccc(Cn2cc(Br)cn2)o1	-5%
O=C(Nc1ccc(-c2nc3cccnc3s2)cc1)c1ccc(Br)o1	u
CCn1c(O)c(N=NC(=O)c2ccc(CSc3nncn3C)cc2)c2ccccc21	-10%
O=C(CN1CCN(S(=O)(=O)c2ccc3ccccc3c2)CC1)N1CCc2ccccc2C1	-9%
CCOc1nc(CC)nc(NC(=O)NS(=O)(=O)c2ccccc2Cl)n1	-25%
Cc1noc(C)c1COC(=O)CCCOc1ccc(Cl)cc1Cl	18µM*
CCOc1ccccc1NC(=O)CSc1ccccc1	-30%
COc1ccc(-n2c(C)csc2=S)cc1	-9%
COC(=O)c1c(N2C(=O)Nc3ccccc3N2O)sc2c1CCCC2	-4%
CCc1nc2ccccc2n1CC(C)C(=O)O (stereo unspecified)	-12%
CCn1c(C(=O)NCCCN2CCc3ccccc3C2)cc2sccc21	-11%

Copied from the list:
Entry for CCc1nc2ccccc2n1CC(C)C(=O)O (stereo unspecified) under HPGD block: -12%
Entry for CCOc1nc(CC)nc(NC(=O)NS(=O)(=O)c2ccccc2Cl)n1 under HPGD block: -25%
Entry for Cc1ccc2cc(CCNC(=O)c3ccc(Br)o3)c(=O)[nH]c2c1 under HPGD block: 28µM*
Entry for CCCCOc1ccc(C(=O)NCc2ccncc2)cc1 under HPGD block: -6%
Entry for Cc1noc(C)c1COC(=O)CCCOc1ccc(Cl)cc1Cl under HPGD block: 18µM*
Entry for O=C(CN1CCN(S(=O)(=O)c2ccc3ccccc3c2)CC1)N1CCc2ccccc2C1 under HPGD block: -9%
Entry for COc1cccc(-n2ccnc2SCC(=O)Nc2cc(OC)ccc2OC)c1 under HPGD block: -14%

The results go on:
SMILES	HPGD block
Cc1ccnc(SCCn2c(N3CCN(c4ccccc4)CC3)nc3c2c(=O)[nH]c(=O)n3C)n1	-6%
N#Cc1ccc(N2CCN(C(=O)c3cccc(F)c3)CC2)c(F)c1	2%
O=C(O)CCc1nc2ccccc2[nH]1	-11%
CCn1c(CSc2nc3ccccc3s2)nc2ccccc21	u
COC(=O)c1cccc(-n2c(C)cc(C=O)c2C)c1	-13%
O=C(COC(=O)CNC(=O)c1ccccc1F)Nc1ccc2c(c1)OCCO2	-1%
COC(=O)c1nnn(-c2nonc2N)c1CN1CCc2ccccc21	-7%
COc1cccc(C2c3c(oc4ccccc4c3=O)C(=O)N2CCCN2CCOCC2)c1 (stereo unspecified)	-11%
CCOc1ccc(C(=O)N2CCN=C2SC)cc1OCC	-9%
Nc1cc(C2CCCC2)nn1-c1ccccc1	-21%
O=C(Nc1ccccc1Cc1ccccc1)c1oc2ccccc2c1COc1ccccc1	-25%
Cc1c(Cl)cccc1N=Cc1ccc([N+](=O)[O-])s1	-7%
CCN(CC)c1nc(Nc2ccccc2)nc(Oc2ccc(=O)[nH]n2)n1	-10%
O=C(CCc1ccc(S(=O)(=O)N2CCOCC2)cc1)N1CCN(Cc2ccc3c(c2)OCO3)CC1	-3%
COc1ccc(OCC(=O)N/N=C/c2ccsc2)cc1	-1%
ClC(=C\c1ccccc1)/C=N/N1CCN(c2ccccn2)CC1	-10%
Cc1ccc(C(C[N+](=O)[O-])n2nc(C)cc2C)cc1 (stereo unspecified)	16µM*
CCS(=O)(=O)NCC(c1ccco1)N1CCN(c2ccc(F)cc2)CC1 (stereo unspecified)	-6%
O=C(c1cccc(F)c1)N1CCN(C(=O)c2nn3cccnc3c2Cl)CC1	-18%
O=C(Cc1ccccc1)n1nc(-c2ccccc2)nc1NCc1ccco1	-14%
O=C(CSc1ncccn1)N1CCN(C(c2ccccc2)c2ccccc2)CC1	-2%
C[C@@]12CC[C@@H]3[C@@H](CC[C@H]4C[C@@H](O)CC[C@]43C)[C@H]1CC[C@@H]2c1cc(C(F)(F)F)n[nH]1	-2%
Cc1c(C(=O)Nc2ccc(-c3nnc4n3CCCCC4)cc2)oc2c1ccc1ccccc12	u
Cc1nnc(Cl)c2nn(-c3ccccc3F)c(C)c12	u
CC1(c2ccc(Cl)cc2Cl)OCC(Cn2ccnc2)O1 (stereo unspecified)	-3%
CS(=O)(=O)N1CCC2(CCCN(Cc3cc(C(F)(F)F)cc(C(F)(F)F)c3)C2)CC1	-13%
Oc1c(CN2CCc3ccccc3C2)cc(Cl)c2cccnc12	-14%
O=C(NCCNC(=O)c1cc(OCC(F)(F)F)ccc1OCC(F)(F)F)Nc1ccc(OC(F)(F)F)cc1	-15%
CCCNC(=O)c1ccc(CN2CCc3ccccc3C2)cc1	-28%
Oc1ccccc1C=NC(c1ccccc1)C(O)c1ccccc1 (stereo unspecified)	-11%
Cc1ccc(NC(=S)N(Cc2cccs2)Cc2cc3cc(C)ccc3[nH]c2=O)cc1	-10%
COC(=O)c1oc2ccccc2c1-n1cccc1	-4%
CCOC(=O)C(=CNCC(=O)OC)C(=O)OCC	-4%
CCOc1ccc(-n2c(Cc3cc(=O)[nH]c(=O)[nH]3)nnc2SCC(=O)NC2CCCC2)cc1	-8%
COC(=O)C1=C(N)Oc2cc(C)n(CC3CCCO3)c(=O)c2C1c1ccccc1OC (stereo unspecified)	-4%
COc1ccc(C2=NNC(c3cccs3)=Nc3ccc(OC)cc32)cc1	-6%
CC(C)(C)C(=O)Nc1cc(NC(=O)C(C)(C)C)cc(C(=O)Nc2cc(C(=O)O)cc(C(=O)O)c2)c1	-13%
CCOC(=O)c1c(NC(=O)Cn2cc([N+](=O)[O-])cn2)sc2c1CCC2	-7%
c1ccc(Cn2ccnc2-c2ccco2)cc1	-8%
CC(C)C(=O)NC(C)C(c1cccs1)N1CCN(c2ccccc2)CC1 (stereo unspecified)	1%
CC(=O)Nc1cccc(NC(=O)Nc2ccc(C(C)=O)cc2)c1	-5%
ClC(=Nc1cccc2ccccc12)N(c1ccccc1)c1ccccc1	-26%
CCOC(=O)c1c(CN(C)C)n(-c2ccc(C)cc2)c2cc(Br)c(O)cc12	-19%
C=CCN(CC=C)C(=S)NC(=O)c1ccc(-c2ccccc2)cc1	u
O=S(=O)(NC1CCCCC1)c1ccc(Br)cc1	-20%
Cc1cc(C)nc(N2CCCC(C(=O)Nc3nc4ccc(S(C)(=O)=O)cc4s3)C2)n1 (stereo unspecified)	-12%
O=C(c1cccc2c1-c1ccccc1/C2=N/O)N1CCCCC1	-1%
Fc1ccc(NC(=S)Nc2cccc(Cl)c2)cc1	-5%
CCOC(=O)N1CCN(c2ncnc3c2oc2nc(C)c4c(c23)CC(C)(C)OC4)CC1	-3%
COCc1[nH]nc2c1C(c1ccccc1OC)C(C#N)=C(N)O2 (stereo unspecified)	-14%
N#CC(C#N)=NNc1ccc(S(=O)(=O)N2CCCCC2)cc1	32µM*
COC1C=CC23c4cc5c(cc4CN(CC2O)C3C1)OCO5 (stereo unspecified)	-6%
CC(=O)Nc1ccc(S(=O)(=O)Nc2nc3ccc(C)cc3s2)cc1	-21%
Oc1c(C=Nc2cccnc2)sc2ccccc12	-24%
COc1ccccc1CNS(=O)(=O)c1ccc2[nH]cc(C(=O)O)c(=O)c2c1	-7%
COC(=O)C(NC(=O)Nc1ccccc1OC)C(C)C (stereo unspecified)	-4%
COc1ccccc1/C=N/NC(=O)c1[nH]c(C)c(C(=O)N/N=C/c2ccccc2OC)c1C	u
CC(C)N1C(=S)SC(C)(C)C1n1oc(=O)n(-c2ccc(Cl)c(Cl)c2)c1=O (stereo unspecified)	-12%
CC1CCCCN1CCNc1nc(=S)[nH]c2ccccc12 (stereo unspecified)	-2%
CC1CCC(C(=O)NC(C(=O)N2CCC(N3CCCCC3)CC2)C(C)C)CC1 (stereo unspecified)	-2%

Sorted by formula weight (rising): some entries from above.
SMILES	HPGD block
N#CC(C#N)=NNc1ccc(S(=O)(=O)N2CCCCC2)cc1	32µM*
O=S(=O)(NC1CCCCC1)c1ccc(Br)cc1	-20%
CCOC(=O)c1c(CN(C)C)n(-c2ccc(C)cc2)c2cc(Br)c(O)cc12	-19%

(cont.)
SMILES	HPGD block
CCOc1ccc2nc(SCC(=O)N3CCCc4ccccc43)sc2c1	-11%
CC(C)(C)OC(=O)N1CCC(C(=O)N[C@H](Cc2ccccc2)C(=O)O)CC1	-11%
CCCc1ccc(-c2ccc(F)c(N)c2)nc1	-11%
CC(=O)Nc1ccc(NC(=O)Oc2ccccc2)cc1	3%
OC(CN1CCN(c2cccc(Cl)c2)CC1)C(c1ccccc1)c1ccccc1 (stereo unspecified)	-14%
CCn1c(SCC(=O)NCc2ccc(C)cc2)nnc1-c1ccncc1	-6%
O=C(Nc1ccccc1)N1CC[C@@]2(CCCN(C(=O)c3csnn3)C2)C1	-8%
OCc1nn2c(c1Br)NC(c1ccccc1)CC2C(F)(F)F (stereo unspecified)	-8%
CNC(=O)c1cccnc1Nc1cccc(C(F)(F)F)c1	-3%

Some of these compounds in order of the HPGD block value, low to high.
SMILES	HPGD block
OC(CN1CCN(c2cccc(Cl)c2)CC1)C(c1ccccc1)c1ccccc1 (stereo unspecified)	-14%
CC(C)(C)OC(=O)N1CCC(C(=O)N[C@H](Cc2ccccc2)C(=O)O)CC1	-11%
OCc1nn2c(c1Br)NC(c1ccccc1)CC2C(F)(F)F (stereo unspecified)	-8%
CNC(=O)c1cccnc1Nc1cccc(C(F)(F)F)c1	-3%
CC(=O)Nc1ccc(NC(=O)Oc2ccccc2)cc1	3%

Not all compounds are listed; count on the stated rates, not on these rows.
